2A StopGo = FMDV 2A StopGo reporter, luciferase signal; human cells with a luciferase reporter of 2A StopGo recoding; control for the full effect not named in the record; Potency, µM (doses to about 57.9 µM), without a hit: at the top dose signal change, negative = less light; 410,000 tested, 1.2% active; active = well fitted falling curve with a large enough effect; inconclusive = small, poorly fitted or top-dose-only effect; inactive = no such curve, though single readings can be large or run the other way; tested in HEK293T cells; further: on the % scale 0 is the no-effect control and ±100 the full control effect; nearly all actives have a fitted effect of over 45% in size; luciferase light after 4 h
Marburg entry inh = blocks Marburg virus binding to or entry into cells | 300,000 tested, 1.8% active | AID 540276 | Potency, µM (titrated, usually from 37.8 µM), without a hit: at the top dose activity change, negative = inhibition, hits mostly inhibitors | Marburg virus pseudotyped entry inhibition, cell reporter; control for the full effect not named in the record; about a third of the inactives were read at about 46 µM; active = well fitted inhibition curve with a large enough effect; inconclusive = small, poorly fitted or top-dose-only effect, or effect the other way; inactive = flat fitted curve, though single readings scatter; tested in HEK293 cells; about a fifth of its hits are not listed in these tables; further: on the % scale 0 is the no-effect control and ±100 the full control effect; luciferase read-out
Cruzain noTriton = blocks cruzain activity in detergent-free assay; purified cruzain, Z-FR-AMC fluorescence, no detergent; Potency, µM, inactives show max response, negative = inhibition, most hits filed as inhibitors; 200,000 tested, 2.3% active; AID 1476; active means well fitted curve in the direction sought with a large enough effect; inconclusive means small, poorly fitted or top-dose-only effect, or another doubt; inactive means no such curve, though single readings can be large; an effect the other way counts as inactive or inconclusive;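 further: plate controls were enzyme without inhibitor for no effect and buffer without enzyme for full effect; nearly all actives have a fitted effect of over 40% in size; top concentration of the series not given in the record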
Target sequence (P25779 123-467 limits assumed): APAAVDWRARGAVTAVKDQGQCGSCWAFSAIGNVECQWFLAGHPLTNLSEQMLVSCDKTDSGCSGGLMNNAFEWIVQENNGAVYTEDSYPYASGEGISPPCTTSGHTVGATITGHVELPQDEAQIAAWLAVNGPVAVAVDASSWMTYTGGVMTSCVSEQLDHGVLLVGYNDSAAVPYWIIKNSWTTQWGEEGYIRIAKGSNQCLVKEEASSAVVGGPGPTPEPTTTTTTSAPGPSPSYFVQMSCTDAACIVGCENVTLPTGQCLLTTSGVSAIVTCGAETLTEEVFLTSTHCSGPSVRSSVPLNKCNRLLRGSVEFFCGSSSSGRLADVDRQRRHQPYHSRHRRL
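Detergent-free condition (0.00005% Triton X-100) in acetate buffer pH 5.5 with DTT. 1.5 nM enzyme and compound were pre-mixed 15 min, then 2 uM Z-FR-AMC substrate added; reaction progress from fluorescence change between first and third reads (60 s).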
NS1 function inh = blocks influenza NS1 protein function; 270,000 tested, 0.4% active; S. cerevisiae slowed by influenza A NS1, growth recovery by OD600; Potency, µM (highest dose often 46.1 µM), without a hit: at the top dose activity, positive = more growth; further: actives are rising curves; nearly all actives have a fitted effect of over 50% in size
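S. cerevisiae expressing influenza A NS1, grown in glucose, washed, then diluted 1:100 into pH 6.0 -URA galactose medium with 23 nl compound. Growth recovery read as OD600; NS1-free strain serves as control.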
Cruzain Triton = inhibitors of Trypanosoma cruzi cruzain with detergent | 200,000 tested, 0.43% active | purified cruzain, Z-FR-AMC fluorescence, 0.01% Triton | AID 1478 | Potency, µM, inactives show max response, negative = inhibition, usual class: inhibitors | P25779; active means well fitted curve in the direction sought with a large enough effect; inconclusive means small, poorly fitted or top-dose-only effect, or another doubt; inactive means no such curve, though single readings can be large; an effect the other way counts as inactive or inconclusive;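 further: plate controls were neutral wells for no effect and buffer without enzyme for full effect; nearly all actives have a fitted effect of over 40% in size; top concentration of the series not given in the record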
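Sodium acetate buffer (100 mM, pH 5.5) containing 5 mM DTT and 0.01% Triton X-100 hosted 1.5 nM cruzain and test compound for 15 min at room temperature. Cleavage of 2 uM Z-FR-AMC was then tracked by fluorescence.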
Lassa entry inh = blocks Lassa virus binding to or entry into cells. Lassa virus pseudotype entry inhibition, cell reporter; control for the full effect not named in the record. Potency, µM (series often up to 37.9 µM), inactives show top-dose activity change, negative = inhibition, actives largely listed as inhibitors. 300,000 tested, 1.2% active; active means well fitted inhibition curve with a large enough effect; inconclusive means small, poorly fitted or top-dose-only effect, or effect the other way; inactive means flat fitted curve, though single readings scatter; tested in HEK293 cells; further: on the % scale 0 is the no-effect control and ±100 the full control effect; nearly all actives have a fitted effect of over 50% in size; luciferase read-out
SARS PLpro yeast = inhibitors of SARS-CoV papain-like protease in yeast; S. cerevisiae expressing SARS-CoV PLpro, growth rescue; control for the full effect not named in the record; Potency, µM (titrated, usually from 32.9 µM), inactives show top-dose activity, positive = growth rescue; 330,000 tested, 0.19% active; further: 0% is about no effect; nearly all actives have a fitted effect of over 55% in size; growth read by luminescence after 48 h
RE007 growth inh = less growth of the S. pombe RE007 Vpr strain. S. pombe RE007 Vpr strain, BacTiter-Glo ATP luminescence, 24 h; control for the full effect not named in the record. Potency, µM (top dose mostly 92.2 µM), for the others: at the top dose activity change, negative = less growth. 360,000 tested, 0.21% active. AID 651644; active = well fitted falling curve with a large enough effect; inconclusive = small, poorly fitted or top-dose-only effect; inactive = no such curve, though single readings can be large or run the other way;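 further: on the % scale 0 is the no-effect control and ±100 the full control effect; nearly all actives have a fitted effect of over 50% in size; the assay follows cell death caused by Vpr and the record does not say whether a fall means rescue or toxicity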
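Fission yeast RE007 carrying one integrated HIV-1 vpr copy, seeded at OD 0.01 in PMG+AL medium with 23 nL pinned compound. Grown 24 h at 30 degrees; viability read by BacTiter-Glo luminescence after 5 min.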
The depositor's hits bear a star; ? = inconclusive; . = no result given; [ ] = another dose, or the depositor's remark. Unless noted, the call rests on the fitted dose curve; in most records, active means well fitted rising curve with a large enough effect; inconclusive means small, poorly fitted or top-dose-only effect; inactive means no such curve, though single readings can be large or run the other way. Potency means the concentration at half of the fitted maximal effect.

SMILES	2A StopGo	Marburg entry inh	Cruzain noTriton	NS1 function inh	Cruzain Triton	Lassa entry inh	SARS PLpro yeast	RE007 growth inh
O=C(NC1CCCC1)C(c1ccc(F)cc1)N(Cc1ccccc1)C(=O)c1csnn1 (stereo not given)	3%	-23%[46.1 µM]	.	13%	.	?	1%	11%
c1ccc(C[C@H]2CN=C(Nc3ccccc3)N2CCCC2CCCC2)cc1	-23%	.	.	-14%	.	.	3%	7%
Cc1ccc(OCCn2c(=S)[nH]c3c(N)ncnc32)cc1	112%[activator]	-4%[46.1 µM]	.	-3%	.	-1%	3%	8%
CC(C(=O)Nc1ccccc1Oc1ccccc1)c1ccccc1 (stereo not given)	-5%	-27%	-22%	-6%	-6.3%	-1%	-2%	-6%
CCOc1ccc(CNC(=O)c2nnc(CS(=O)(=O)c3ccccc3)o2)cc1OC	-25%	.	.	-3%	.	.	0%	9%
O=C(O)c1cccc(N2C(=O)c3cccc4c(Cl)ccc(c34)C2=O)c1	3%	?	.	.	.	-12%[46.1 µM]	1%	31%
COc1ccc(NC(=O)C/C(C)=N/NC(=O)c2cccs2)c([N+](=O)[O-])c1	-13%	4%[46.1 µM]	.	0%	.	23%	-3%	-5%
CCNC(=S)Nc1ccccc1-c1ccccc1	-4%	-34%	-16%	-5%	2.3%	-5%	6%	-4%
CC1CCn2c(nc3cc(C(=O)NCc4ccc(OC(C)C)cc4)ccc32)C1 (stereo not given)	42%[activator]	.	-5%	.	1.1%	20%[46.1 µM]	.	.
CCC(C)Nc1nc2c(c(=O)n(C)c(=O)n2C)n1C (stereo not given)	-19%	8%[46.1 µM]	.	-2%	.	?	0%	-2%
CC(=O)Nc1ccc([As](=O)(O)c2ccc([N+](=O)[O-])cc2)cc1	-10%	8%[46.1 µM]	.	6%	.	1%	1%	3%
Cn1ccnc1C(O)(c1ccccc1)c1ccccc1	-3%	25%	.	0%	.	14%	-1%	-4%
COc1cccc(-c2nnc(NC(=O)c3cccc(F)c3)o2)c1	6%	.	.	-19%	.	.	-3%	-2%
CCO[C@@H]1OC(C(=O)N2CCN(Cc3ccc4c(c3)OCO4)CC2)=C[C@H](c2ccc(Br)cc2)[C@H]1CCCO	?	.	.	-13%	.	.	0%	-12%
CN1CCC2(CC1)c1ccccc1-c1ccccc12	0%	?	.	.	.	?	.	1%
CC(C)c1c(O)cc(-c2ccncc2)n(-c2ccc(Cl)cc2)c1=O	-19%	?	11%	0%	-6.9%	?	6%	3%
Cc1cc(C)nc(Nc2n[nH]c(COc3ccc4ccccc4c3)n2)n1	21%	?	?	2µM*	3.7%	-13%	4%	0%
Nc1nonc1C(=O)NCCNc1ccc([N+](=O)[O-])cc1	0%	.	.	4%	.	.	0%	-11%
CN1CCN(Cc2cn(C)c3ccccc23)CC1CCO (stereo not given)	-10%	?	.	24%	.	-18%[46.1 µM]	-4%	6%
O=C(NCc1ccc2c(c1)OCO2)c1ccccn1	32%[activator]	18%	-5%	5%	-2.8%	27%	2%	-3%
O=C(CC12CC3CC(CC(Br)(C3)C1)C2)NC1=NCCS1	0%	?	.	.	.	?	0%	3%
CCOc1ccc(OCC)c(NC(=O)C2CCCN(c3nc(C)cc(C)n3)C2)c1 (stereo not given)	?	-7%	11%	-9%	-2.1%	-13%	-2%	-19%
COc1ccc(F)cc1S(=O)(=O)n1nnc2ccccc21	29%	?	.	-4%	.	-7%	0%	37%
Cc1ccc(NC(=O)c2nnn(Cc3ccccc3)c2N)cc1C	46%[activator]	?	-7%	.	-0.1%	-1%[46.1 µM]	.	.
Cc1ccc(-c2ccc(S(=O)(=O)Nc3cccnc3)cc2)cc1	-22%	-24%	.	1%	.	-29%	-1%	5%
CCOc1ccc(Nc2nc(Cc3nnc(SCC(=O)c4ccc(C)cc4)o3)cs2)cc1	-15%	-9%	-4%	9%	-15%	6%	-1%	3%
O=C(CSc1nnnn1C1CCCC1)N1CCOCC1	21%	6%	.	-1%	.	12%	-1%	6%
Cc1ccc(C(=O)NNC(=O)C2CSC3(C)CCC(=O)N23)cc1 (stereo not given)	0%	11%[46.1 µM]	.	.	.	4%	8%	2%
CCOC(=O)/C(C#N)=C\c1ccc(N2CCN(C)CC2)cc1	.	15%	-9%	-13%	-5.8%	0%	6%	-8%
Cc1cc2cc(C(=O)N3CCc4c([nH]c5ccccc45)C3c3ccccn3)ccc2o1 (stereo not given)	-10%	.	.	-35%	.	.	-3%	4%
O=c1c2oc3ccccc3c2n(Cc2ccc(Cl)cc2)c(=O)n1Cc1ccco1	-22%	.	20%	.	0.8%	5%[46.1 µM]	.	.
CCCCCCc1cc2cc(-c3nnc(-c4cccc(Cl)c4)o3)c(=O)oc2cc1O	-1%	.	7%	.	0.4%	?	.	.
CN1CCCN(C(=O)C2CCCCC2)CC1	-15%	25%[46.1 µM]	.	4%	.	13%	21%	-7%
Cc1c(NC(=O)c2cccc3c(Cl)cccc23)cccc1-c1nc2ccccc2o1	-13%	9%[46.1 µM]	-4%	.	0.1%	?	.	.
CCOc1cccc(NC(=O)C2CC(=O)N(C)C2)c1 (stereo not given)	.	3%	-1%	1%	2.9%	-10%	5%	-6%
C=CCNc1nc2c(c(=O)[nH]c(=O)n2C)n1Cc1cccc(C)c1	-12%	.	3%	-62%	3.3%	.	-10%	3%
Cc1ccc(S(=O)(=O)CCC(=O)OCC(=O)N2CC(=O)Nc3ccccc32)cc1	-10%	?	3%	?	-4.1%	-7%	14%	1%
CN1C(=O)C(C)(C)c2cc(S(=O)(=O)NCC3CCC(C(=O)NCc4ccc(F)cc4)CC3)ccc21 (stereo not given)	-14%	12%[46.1 µM]	.	-19%	.	23%[46.1 µM]	1%	-4%
CCOC(=O)N1CCN(C(=O)COc2ccc([N+](=O)[O-])cc2)CC1	-12%	10%[46.1 µM]	.	.	.	2%	0%	-6%
Cc1ccc(NC(=O)c2cc(S(=O)(=O)N3CCOCC3)cn2C)c(C)c1	-15%	.	.	8%	.	.	-1%	-4%
CCOc1ccc2nc(N3CCCC(C(=O)NCc4ccccc4OC)C3)sc2c1 (stereo not given)	5%	5%[46.1 µM]	-14%	.	-1.0%	.	.	.
O=C(C1=NN[C@@H]2C(=O)N(c3cccc(C(F)(F)F)c3)C(=O)[C@H]12)C(c1ccccc1)c1ccccc1	-28%	11%	-1%	13%	-4.9%	-6%	2%	-17%
CCn1cc(CN2CCC(C(=O)Nc3cccc(-c4cccc(F)c4)c3)CC2)cn1	0%	-25%	.	-5%	.	-15%	3%	3%
COC(=O)c1c(-c2cccs2)csc1NC(=O)COc1ccccc1	3%	?	-20%	.	-16%	16%[46.1 µM]	.	.
CCOC(=O)C(Cc1ccccc1)NC(=O)CCc1nnc2ccc(N3CCCCC3)nn12 (stereo not given)	3%	.	.	-14%	.	.	5%	-6%
CC(NC(=O)c1cc2c(s1)CCCC2)C(C)(C)C (stereo not given)	20%	9%	-6%	-11%	-6.1%	-17%	10%	-6%
O=C(Cc1ccccc1[N+](=O)[O-])OCC(=O)N1CCN(c2ccccc2)CC1	-6%	?	.	.	.	12%	0%	10%
Cc1ccc(NS(=O)(=O)c2ccc(OCC(=O)NCc3ccco3)cc2)cc1	5%	-26%	-5%	3%	0.5%	?	4%	7%
Cn1cc(C=C2C(=O)NC(=O)NC2=O)c2ccccc21	1%	7%	.	3%	.	6%	3%	16%
CC1CN2C(c3ccc(Cl)cc3)=CSC2=N1 (stereo not given)	-7%	.	.	21%	.	.	0%	2%
CCOC(=O)C1CCCN(C(=O)c2cc3cc(Br)ccc3oc2=O)C1 (stereo not given)	-11%	4%[46.1 µM]	.	.	.	11%[46.1 µM]	-1%	5%
Cc1cc(=O)oc2c1c(C)nn2-c1nn[nH]n1	-14%	-2%	-10%	2%	1.1%	?	-3%	-10%
COc1ccc(CCN2CC(C(=O)NCc3cccc4[nH]ccc34)CCC2=O)cc1 (stereo not given)	-9%	1%	.	3%	.	-4%	2%	-8%
COCC(=O)NNC(=O)c1ccccc1OC	7%	0%[46.1 µM]	.	-1%	.	5%	0%	-8%
Cc1cc(C)nc(Nc2ncc(O)n2-c2ccccc2)n1	.	-2%	9%	-8%	-4.1%	4%	2%	0%
CN(c1ccc(C(=O)O)cc1)S(=O)(=O)c1ccc(Cl)cc1	-21%	-5%	-9%	-8%	-2.3%	15%	0%	16%
COc1cccc(NC(=O)CSc2nn3c(=O)c(C)nnc3s2)c1	7%	-4%[46.1 µM]	.	?	.	24%[46.1 µM]	-1%	17%
CCOc1cc(-c2cc(-c3ccc(C)cc3)nc(N)c2C#N)ccc1O	?	?	-3%	-3%	-9.3%	?	-2%	9%
Cc1nn(Cc2ccccc2)c(=O)n1N(C)c1ncc(C(F)(F)F)cc1Cl	-24%	-11%	22%	-95%	0.4%	14%	3%	3%
CCCCOC(=O)Nc1cccc(C(=O)OCC)c1	2%	?	-2%	-23%	-1.2%	-23%	3%	-6%

Additional compounds:
SMILES	2A StopGo	Marburg entry inh	Cruzain noTriton	NS1 function inh	Cruzain Triton	Lassa entry inh	SARS PLpro yeast	RE007 growth inh
COc1ccc(OC)c(NC(=O)C2CCCCC2C(=O)O)c1 (stereo not given)	-22%	17%	3%	3%	2.4%	1%	-13%	-10%
O=C(COC(=O)c1cc(-c2cccnc2)nc2ccccc12)Nc1ccc(F)cc1F	-21%	8%	-4%	4%	-5.5%	16%	-15%	3%
O=c1c(-c2ccco2)[n+]([O-])c2ccccc2n1OCc1ccccc1	-15%	.	-16%	11%	-0.4%	.	15%	.
CCCCN(CC)CCCNC(=O)c1nn(C)c2c1CSc1ccccc1-2	-4%	-2%[46.1 µM]	-3%	.	-3.9%	7%[46.1 µM]	.	.
CC(C)c1csc(CN2CCCC(CCC(=O)NCc3ccccc3F)C2)n1 (stereo not given)	-8%	.	.	4%	.	.	0%	2%
CCCCCCCCNc1ncnc2[nH]ncc12	-27%	?	.	.	.	-5%[46.1 µM]	.	4%
Cc1ccc(C)c(NC(=O)Cn2nc(C)c3nn(-c4ccc(Cl)cc4)c(C)c3c2=O)c1	?	.	16%	.	3.6%	?	.	.

Screens deposited in PubChem BioAssay by National Center for Advancing Translational Sciences (NCATS).
